TRPML1 ag – human mucolipin-1 channel agonism; AID 624414; activation, % (concentration not given with the values); TRPML1-expressing cells, Ca2+ dye fluorescence, FDSS; host cell line not named in the record; reference of the full effect not given here; hit rate 0.12% among 410,000; in the data active = activation above about 50%; inconclusive = about 30% to 50%; inactive = below about 30%; also: 0% is about no effect; the text of the record puts the active cut at 80%
Target sequence (Q9GZU1 whole entry, looked up): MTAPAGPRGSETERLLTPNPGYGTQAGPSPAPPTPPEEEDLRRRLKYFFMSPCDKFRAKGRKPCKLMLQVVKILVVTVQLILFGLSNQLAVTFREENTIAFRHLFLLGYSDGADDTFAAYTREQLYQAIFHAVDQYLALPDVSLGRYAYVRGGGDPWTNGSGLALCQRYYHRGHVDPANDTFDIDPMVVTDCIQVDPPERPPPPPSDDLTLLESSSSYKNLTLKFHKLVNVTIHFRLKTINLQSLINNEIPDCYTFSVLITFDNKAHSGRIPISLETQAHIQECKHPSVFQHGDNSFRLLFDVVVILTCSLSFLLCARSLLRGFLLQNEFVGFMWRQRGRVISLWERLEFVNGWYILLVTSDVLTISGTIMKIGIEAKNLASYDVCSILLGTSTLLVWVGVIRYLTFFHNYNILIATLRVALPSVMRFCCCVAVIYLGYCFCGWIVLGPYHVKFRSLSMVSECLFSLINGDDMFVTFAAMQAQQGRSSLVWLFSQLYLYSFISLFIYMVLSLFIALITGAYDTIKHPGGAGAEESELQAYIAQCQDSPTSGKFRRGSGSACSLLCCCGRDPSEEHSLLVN
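TRPML1-DL cells, Tet-induced overnight (~16 h, 37 degrees C), loaded 45-90 min at room temperature with Ca8 no-wash calcium dye plus quencher. FDSS fluorescence: 10 s baseline, compound pin-transfer, 110 s agonist read, then EC80 54-4 (4uM final) and 110 s antagonist read.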
ClpP mod – qHTS Assay for Activators of ClpP; Potency, µM (top dose mostly 57.5 µM), for inactives: at the top dose activity change, negative = active; ATP-dependent Clp protease proteolytic subunit (Bacillus subtilis (strain 168)), P80244; purified B. subtilis ClpP, FRET peptide cleavage, 20 min; hit rate 1.9% among 340,000; active = well fitted falling curve with a large enough effect; inconclusive = small, poorly fitted or top-dose-only effect; inactive = no such curve, though single readings can be large or run the other way; also: potency is read from the fitted curve at half-maximal effect; the source files actives as falling curves though it sought activators and does not explain the sign; nearly all actives have a fitted effect of over 65% in size; many hits overshoot -100%
Target sequence (P80244 whole entry, looked up): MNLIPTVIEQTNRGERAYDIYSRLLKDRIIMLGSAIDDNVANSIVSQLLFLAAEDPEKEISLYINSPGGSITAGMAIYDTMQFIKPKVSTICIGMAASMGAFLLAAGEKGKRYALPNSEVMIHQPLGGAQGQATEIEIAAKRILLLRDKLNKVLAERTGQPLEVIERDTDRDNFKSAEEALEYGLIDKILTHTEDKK
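ClpP 10 microg/mL final, pH 8 Tris/KCl buffer with BSA, glycerol, Tween-20; compound pinned in; FRET-FV substrate; RT 20 min; Ex320/Em430; ΔFRET vs ADEP 5.8 microM, DMSO, no enzyme.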
Numbers without * were called inactive; ? = inconclusive. Some of the compounds tested, so the mix of outcomes need not match the whole.

entry	Compound	TRPML1 ag	ClpP mod
1	COc1cc(F)ccc1-c1cc(C(=O)Nc2ccc(NC(C)=O)cc2)[nH]n1	-0.6	-1.7%
2	CCCNC(=O)C1(C)CCN(C(=O)c2c(Cl)cccc2Cl)C1 (stereo not given)	1.1	-2.1%
3	CC1(C(=O)Nc2cccc(OC(F)(F)F)c2)Cc2c(-c3cccc(C(F)(F)F)c3)ccnc2O1 (stereo not given)	0.8	-20.6%
4	OC[C@@H]1CN(Cc2ccc(Cl)cc2)C[C@H](n2cnc3c(NCc4ccc(F)cc4)ncnc32)O1	1.1	0.9%
5	CCOC(=O)[C@]12CCC=C1N(Cc1ccc3c(c1)OCO3)C(=O)[C@H](CC(=O)NCCCOC)C2	-0.6	-1.1%
6	COc1ccc(-c2cc(C(=O)Nc3cc(OC)c(OC)c(OC)c3)[nH]n2)c(C)c1	-0.9	-1.7%
7	CC(C)(C)c1ccc(C(=O)C[n+]2cccc(Br)c2)cc1	-0.4	0.4%
8	CCC[N+](C)(C)c1ccc(/C=C/c2ccncc2)cc1	16.5	1.6%
9	CS(=O)(=O)c1ccc(Nc2nc(C(N)c3ccccc3)cs2)cc1 (stereo not given)	0.4	-6.0%
10	CC1(C(=O)NC2CCc3ccccc32)CCN1CCc1ccccc1 (stereo not given)	1.4	0.8%
11	Cc1cc2nc(-c3cccc(Cl)c3)c(Cc3cccc(Cl)c3)n2c(C)c1Br	3.6	-0.8%
12	CC1(C(=O)NS(=O)(=O)c2ccc(Br)cc2)CCN1C(=O)Cc1ccsc1 (stereo not given)	-0.4	-0.3%
13	CC(C)NC(=O)C1(C)CCCN1C/C=C/c1ccccc1 (stereo not given)	-0.6	0.4%
14	CCc1ccc(C(O)c2ncc(-c3cccc(C(F)(F)F)c3)[nH]2)cc1 (stereo not given)	0.2	-1.9%
15	O=c1[nH][nH]c2c1[C@H](c1ccc(Cl)cc1)O[C@H](CCc1ccccc1)C2	-0.4	-0.9%
16	Cc1ccc(S(=O)(=O)NC(=O)C2(C)CCN2C(=O)C2CCCCC2)nc1 (stereo not given)	-0.3	-1.5%
17	CCCS(=O)(=O)NC(=O)C1(C)CCN(C(=O)c2ccc(SC(F)(F)F)cc2)C1 (stereo not given)	-0.5	-1.4%
18	COc1ccc(NC(=O)C2(C)Cc3c(-c4ccc(N(C)C)cc4)ccnc3O2)cc1 (stereo not given)	-0.6	4.4%
19	CCN(C)C1CN(Cc2cn(Cc3ccccc3)nn2)S(=O)(=O)C1 (stereo not given)	-0.6	-2.4%
20	CN(C)c1ccc(CNC(=O)C2(C)Cc3c(-c4cccc(C(N)=O)c4)ccnc3O2)cc1 (stereo not given)	-1.0	-0.1%
21	CC(=O)c1cccc(-c2cnc3c(NC=O)cc(-c4ccccc4Oc4ccccc4)cn23)c1	0.0	?
22	COC(=O)c1sc(N2C(=O)c3oc4ccc(F)cc4c(=O)c3C2c2ccc(C)cc2)nc1C (stereo not given)	-0.8	0.3%
23	CCCCCc1c(-c2ccccc2F)ncn1CCc1ccccc1OC	1.6	0.5%
24	COc1ccc(C(=O)N2CCCC2(C)C(=O)NCC(C)C)cc1C(F)(F)F (stereo not given)	-0.3	2.7%
25	C=CCNc1nc2cc(-c3ccc(C(=O)N4CCOCC4)cc3)sc2c(=O)n1C	-0.5	-22.0%
26	COc1ccc(-c2cnc3c(NC(C)=O)cc(-c4ccc(C(=O)N5CCOCC5)cc4)cn23)cc1OC	-0.8	-7.6%
27	CC(=O)Nc1cc(-c2ccc(C(=O)NC3CC3)cc2)cn2c(-c3cccc(C(C)=O)c3)cnc12	-1.0	-15.2%
28	CN(C)c1ccc(/C=c2\[nH]c(=O)/c(=C/c3ccc(N(C)C)cc3)[nH]c2=O)cc1	0.2	1.6%
29	CCc1nc2c(OCc3ccc(Cl)cc3Cl)cccn2c1N(C)C(=O)CC(C)C	0.9	0.5%
30	O=C(O)CCC(=O)c1ccc(C2CCCCCC2)cc1	-0.4	0.5%
31	CC1(C(=O)Nc2ccc3c(c2)OCCO3)CCN1Cc1csc2ccccc12 (stereo not given)	-0.1	0.2%
32	CCCS(=O)(=O)NC(=O)C1(C)CCCN(C(=O)c2cc(C(C)(C)C)nn2C)C1 (stereo not given)	-0.4	-2.5%
33	COc1ccccc1-c1cc(NC(C)=O)c2ncc(-c3ccc(F)cc3)n2c1	-0.8	4.7%
34	COc1cc(C(O)c2nc(-c3cccc(C(F)(F)F)c3)cs2)ccc1F (stereo not given)	0.1	2.4%
35	NC(Cc1ccc(C(F)(F)F)cc1)c1csc(Nc2ccccn2)n1 (stereo not given)	1.3	-2.4%
36	Cc1cc(N(C)C)cc(C)c1/C=C/c1cc[n+](C)c2ccccc12	-0.5	-18.3%
37	C=C1C=C(C)n2ncc(C(=O)Nc3ccc(C)cn3)c2N1	-0.1	-4.7%
38	CCCNC(=O)c1cc(C2CCCN(S(=O)(=O)c3cccc4cccnc34)C2)on1 (stereo not given)	-0.9	1.0%
39	Cc1ccc(F)cc1C(=O)N1CCCC(c2cc(C(=O)NCc3ccccc3)no2)C1 (stereo not given)	-1.2	0.7%
40	O=S1(=O)CC(N2CCN(Cc3ccccc3F)CC2)CN1Cc1cn(Cc2cccc(C(F)(F)F)c2)nn1 (stereo not given)	-1.1	-2.4%
41	O=C1NC[C@H](CCCCN2CCN(CCC3CCCCC3)C(=O)C2=O)N(CC2CCCCC2)C1=O	-0.6	-0.7%
42	CC(=O)Nc1cc(-c2ccc(N)nc2)cn2c(-c3cccc(C(F)(F)F)c3)cnc12	1.8	-18.0%
43	O=c1cc(CN2CCCCCCC2)c2ccccc2o1	-0.7	-0.4%
44	CC1(C(=O)NCc2ccco2)Cc2c(-c3cccc(C(N)=O)c3)ccnc2O1 (stereo not given)	-0.3	-3.4%
45	CC(C)c1ccc(NC(=O)C2(C)Cc3c(-c4cccc(C(N)=O)c4)ccnc3O2)cc1 (stereo not given)	-0.3	-4.1%
46	Cc1ccc(C)c(C(O)c2ncc(-c3ccc4ccccc4c3)[nH]2)c1 (stereo not given)	1.0	4.6%
47	COCCNc1nc(NCc2ccccc2)nc2ccsc12	?	-14.2%
48	Cc1ccccc1-c1csc(C(O)c2cccc(Cl)c2)n1 (stereo not given)	-0.8	-1.8%
49	C=C1C=C(C(F)F)n2ncc(C(=O)NCc3ccccc3OC)c2N1	-1.2	2.8%
50	COc1cc(OC)cc(C2=Cc3ccccc3C(CC(=O)c3ccco3)N2c2ccc(-c3cnc(OC)nc3)cc2)c1 (stereo not given)	0.0	-17.3%
51	CCc1ccc(NC(=O)Cn2c(SCc3ccc(C)cc3)nc3ccncc32)cc1	0.4	-10.0%
52	N#Cc1ccc(C(=O)N2CCCCC2c2cc(C(=O)Nc3ccc4c(c3)OCO4)no2)cc1 (stereo not given)	-0.1	-0.1%
53	COc1ccc(F)cc1-c1cc(C(=O)NCc2ccccc2)[nH]n1	-0.7	-1.0%
54	COc1ccc(-c2sc3cc(OC)ccc3c2-c2ccc(OCCN3CCCCC3)cc2)cc1	0.2	4.8%
55	OC(c1ccc(F)c(F)c1)c1ncc(-c2cccc(F)c2)[nH]1 (stereo not given)	-0.9	0.0%
56	COc1ccc(CNC(=O)c2cccc3c(-c4cccnc4)coc23)cc1OC	-0.8	-8.4%
57	COC(=O)[C@]1(Sc2ccc(C)cc2)CC(=O)N[C@@H]1c1ccccc1	-0.4	0.4%
58	O=C(Nc1c(Cl)cc([N+](=O)[O-])cc1Cl)c1cc(Cl)ccc1O	1.0	8.6%
59	COc1ccc(OC)c(C(Cc2ccnc3ccccc23)Cc2ccnc3ccccc23)c1	0.0	-1.8%
60	O=S1(=O)N[C@H](Cc2ccccc2)COc2cccc(N3CCC[C@@H]3CO)c21	-0.3	-4.4%

Quoted at random: 2 entries already listed, in no set order.
entry	Compound	TRPML1 ag	ClpP mod
57	COC(=O)[C@]1(Sc2ccc(C)cc2)CC(=O)N[C@@H]1c1ccccc1	-0.4	0.4%
55	OC(c1ccc(F)c(F)c1)c1ncc(-c2cccc(F)c2)[nH]1 (stereo not given)	-0.9	0.0%

Some of the entries above, reformatted:
39: Cc1ccc(F)cc1C(=O)N1CCCC(c2cc(C(=O)NCc3ccccc3)no2)C1 (stereo not given)
40: O=S1(=O)CC(N2CCN(Cc3ccccc3F)CC2)CN1Cc1cn(Cc2cccc(C(F)(F)F)c2)nn1 (stereo not given)
41: O=C1NC[C@H](CCCCN2CCN(CCC3CCCCC3)C(=O)C2=O)N(CC2CCCCC2)C1=O
42: CC(=O)Nc1cc(-c2ccc(N)nc2)cn2c(-c3cccc(C(F)(F)F)c3)cnc12
43: O=c1cc(CN2CCCCCCC2)c2ccccc2o1

Assay by compound | 39 | 40 | 41 | 42 | 43
TRPML1 ag | -1.2 | -1.1 | -0.6 | 1.8 | -0.7
ClpP mod | 0.7% | -2.4% | -0.7% | -18.0% | -0.4%

Next section
entry	Compound	TRPML1 ag	ClpP mod
61	CCOC(=O)[C@]12CCC=C1N(Cc1ccc3c(c1)OCO3)C(=O)[C@H](CC(=O)NCC1CCCCC1)C2	-0.7	-1.8%
62	c1cc(-c2ccsc2)n2ccnc2c1	-0.6	5.7%
63	CCOC(=O)C1CCCN(C(=O)c2cccc(Cl)c2)CC1 (stereo not given)	-0.5	2.3%
64	Cc1cccc(C)c1NC(=O)Nc1nc(CN(C)C)cs1	-0.3	2.3%
65	N#CN=c1snc(-c2ccccc2)n1-c1ccc(Cl)cc1	0.1	-1.1%
66	COc1ccc(C(=O)C[n+]2ccc(Cl)c3ccc(Cl)cc32)cc1	-0.4	-0.3%
67	CC(C)CC1OC(C)Cc2[nH][nH]c(=O)c21 (stereo not given)	0.0	3.4%
68	CN1CCN(C(=O)c2cc3c(c(-c4cccc(-c5cc6ccccc6o5)c4)n2)[C@@H](CCO)N(S(=O)C(C)(C)C)C3)CC1 (stereo not given in full)	0.3	-2.5%
69	CCOC(=O)c1sc2nc(OCCN3CCOCC3)cc(C)c2c1N	-0.7	4.7%
70	O=C(COc1ccccc1C(=O)Nc1cccc(F)c1)Nc1ccc(Br)cc1	0.5	-4.2%
71	COC(=O)c1ccc2nc(-c3cccc(Br)c3)c(Cc3ccccc3OC)n2c1	1.3	?
72	N/C(=C\c1ccccc1)c1ccncc1	6.0	-2.8%
73	CCCc1c(-c2ccccc2)ncn1Cc1ccccc1OC	0.8	-1.7%
74	CC1(Oc2cccc(F)c2)CCN(Cc2ccc3ccccc3c2)C1 (stereo not given)	-0.7	-5.1%
75	CCc1nc2ccc(C(=O)Nc3cc(-c4ccccc4)ccc3OC)cn2c1N(CC)Cc1cccc(Br)c1	-0.3	?
76	NCC(=O)c1c[nH]c2ccccc12	0.0	-4.9%
77	C[C@@H]1CC2=C(C(=O)OC(C)(C)O2)[C@H](c2ccc(F)cc2)O1	-0.3	3.4%
78	CN(C)c1ccc(C2CCc3ccccc3N2C(=O)c2ccccc2)cc1 (stereo not given)	-0.8	-4.5%
79	COc1cc(OC)cc(-c2c(Sc3ccccc3)c3cc(-c4ccc5c(c4)OCCO5)ccc3n2C)c1	1.2	5.0%
80	O=c1[nH][nH]c2c1[C@H](C1CCCC1)O[C@H](CCc1ccccc1)C2	0.1	-4.2%
81	COCCC(=O)N1CCOCC1c1cc(C(=O)NCc2ccccc2)no1 (stereo not given)	-0.1	0.7%
82	CN(C)c1cc(F)c(C=O)cc1F	-0.4	0.6%
83	CCCCCCCCN1C(=O)[C@H](CC(=O)NCc2ccccc2)C[C@@]2(C(=O)OCC)CCCC=C12	-0.5	1.2%
84	CCc1ccc(OCCn2c(CCNC(=O)C3CCCCC3)nc3ccccc32)cc1	0.0	-0.9%
85	CCCCCCCN(CCCCCCC)c1ccc(/C=C/c2ccnc3ccccc23)cc1	0.8	1.0%
86	O=C1c2cccc(-c3ccc(C(F)(F)F)cc3)c2C2CC=CCN12 (stereo not given)	-0.7	1.0%
87	COc1cc2oc(=O)cc(CN(Cc3ccccc3)Cc3ccccc3)c2cc1Cl	0.0	-7.0%
88	NC(c1csc(Nc2ncccn2)n1)c1ccccc1Cl (stereo not given)	-0.8	0.7%
89	Nc1[nH]c(=O)nc2c1ncn2C1OC(CO)C(O)C1O (stereo not given)	-0.4	-0.5%
90	O=C1NC[C@H](CCCCN2C[C@H](Cc3ccccc3)N(CCc3ccccc3)C(=O)C2=O)N(CC2CCCCC2)C1=O	-0.5	1.2%
91	O=C(Nc1ccc2c(c1)OCCO2)C(CCc1ccccc1)N1CCN(c2ccc(F)cc2)CC1 (stereo not given)	-0.6	-5.6%
92	CC(C)CNC(=O)C1(C)CCCN1C(=O)C(C)(C)Oc1ccc(Cl)cc1 (stereo not given)	-0.6	-1.3%
93	CCOC(=O)[C@]12CCC=C1N(CCC1=CCCCC1)C(=O)[C@H](CC(=O)NCCCN1CCCC1=O)C2	-0.2	1.2%
94	O=C(NC1CCCCC1)C(c1ccnc2ccccc12)N1CCOCC1 (stereo not given)	-0.4	0.3%
95	CCc1ccc(C(O)c2ncc(-c3ccc(Cl)cc3)[nH]2)cc1 (stereo not given)	-1.0	-2.8%
96	OC(c1ccc(F)c(F)c1)c1nc(-c2cnc3ccccc3c2)cs1 (stereo not given)	7.5	?
